Source: PubChem BioAssay
AF4-AF9 inh – blocks AF4 peptide binding to human AF9. P42568. AlphaScreen, biotin-AF4 peptide binding to FLAG-AF9. inhibition, % at 10 µM. 350,000 compounds, 0.47% hits;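 active = every replicate reaching a set inhibition limit, whatever the replicate mean, cut at about 25% in these data; inconclusive = mean inhibition reaches that limit but some replicates miss it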;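 note: 0% = plate neutral control median and 100% = total signal loss; the record names both 10 and 1 µM as test concentration; the first replicate is given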
Target sequence (P42568 whole entry, looked up): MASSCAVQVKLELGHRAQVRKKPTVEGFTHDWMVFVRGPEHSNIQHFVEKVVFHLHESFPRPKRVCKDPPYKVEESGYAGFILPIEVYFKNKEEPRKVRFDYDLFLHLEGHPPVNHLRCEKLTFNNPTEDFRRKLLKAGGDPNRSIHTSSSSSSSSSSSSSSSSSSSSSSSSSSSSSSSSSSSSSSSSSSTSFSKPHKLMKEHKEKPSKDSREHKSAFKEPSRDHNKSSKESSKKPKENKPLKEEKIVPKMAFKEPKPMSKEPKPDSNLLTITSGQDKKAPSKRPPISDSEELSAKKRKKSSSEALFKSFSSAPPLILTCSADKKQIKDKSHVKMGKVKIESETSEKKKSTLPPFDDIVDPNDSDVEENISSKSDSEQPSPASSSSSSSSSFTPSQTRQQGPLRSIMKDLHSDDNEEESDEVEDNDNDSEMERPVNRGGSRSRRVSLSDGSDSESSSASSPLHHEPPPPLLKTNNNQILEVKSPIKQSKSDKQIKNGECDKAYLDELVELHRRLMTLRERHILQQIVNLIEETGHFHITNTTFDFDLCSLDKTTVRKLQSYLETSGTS
A1 inh – inhibitors of the anti-apoptotic protein A1, read as caspase activation; MEF A1-2A-BIM cells, Caspase-Glo 3/7 luminescence, 3 h; percent of clofoctol response, vehicle zero; 330,000 compounds, 0.066% hits; caspase activation, % (no concentration beside the values); AID 2462;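 active = over half of replicate activation scores above 10%, or exactly half above 10 with the replicate mean above 10; inconclusive = replicate mean below 10 yet half the replicates above 10; inactive = over half of replicates below 10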;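 note: wells of about 30 µL received 50 nL stock; many hits fall short of the cut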
Beta cell apopt – blocks beta cell apoptosis. INS-1E cytokine-induced death, ATP luminescence, 48 h; percent of positive-control rescue, neutral wells zero. protection from apoptosis, % (test concentration not listed). 300,000 compounds, 0.8% hits. AID 435005;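 active = all replicates at 75% or more, or half of them and the mean; inconclusive = half reach 75% but not the mean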;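 note: 0% = cytokine-treated negative control wells and 100% = positive control rescue; higher means more ATP so stronger rescue from cytokine killing; wells of about 40 µL received 100 nL stock; the first replicate is given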
Calb FLC – affects C. albicans growth with fluconazole | C. albicans CaCi-2 (fluconazole-resistant clinical isolate) + fluconazole, Alamar Blue growth, 48 h | growth inhibition, % (no concentration beside the values) | 300,000 compounds, 0.57% hits | AID 1979;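 active = most replicates above 75%; inconclusive = exactly half above 75%; inactive = most below 75%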;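 note: all wells also contain fluconazole at 8 µg/ml as a sub-toxic cotreatment; 0% = median of DMSO wells and 100% = median of geldanamycin control wells; wells of about 8 µL received 7.5 nL stock; the first replicate is given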
Ecoli rRNA inh – inhibits bacterial ribosomal RNA function over humanized ribosomes | E. coli WT GFP vs humanized-ribosome RFP mutants, fluorescence, 24 h; hits give low values; DMSO median 0, no signal -100 | GFP signal change (wild-type ribosome), % (test concentration not listed) | 350,000 compounds, 1.6% hits | AID 720706;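 active = significant combined selectivity score with lowered wild-type GFP, culture density cut under 30%, mutant RFP and density less affected; inactive = any of these conditions unmet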; note: one replicate is shown; some compounds called inactive have numbers as strong as hits
RanGTP-Imp inh – inhibitors of RanGTP-importin-beta interaction, primary screen, biochemical, FRET, CFP-Ran, YFP-importin-beta, homogeneous. cell-free CFP-Ran/YFP-importin-beta FRET ratio. inhibition, % (concentration not given with the values). 300,000 compounds, 1.1% hits. AID 2216;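 active = most replicates above 15%; inconclusive = exactly half above 15%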;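 note: 0% = DMSO wells and 100% = Ran loaded with GDP instead of GTP; wells of about 40 µL received 100 nL stock; the first replicate is given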
Vif A3G – inhibitors of Vif binding to APOBEC3G peptide, primary screen, biochemical, TR-FRET, GST-Vif 1-94, biotin-A3G peptide, dose response retest (AID 1117319). TR-FRET GST-Vif / biotin-A3G peptide binding; higher % means a stronger effect; test concentration not given here; strong numbers were not always called active. one-dose inhibition, %; IC50 in µM for titrated hits. 260,000 compounds, 0.57% hits;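 active = above the screen mean plus three standard deviations and confirmed in dose response; inconclusive = results disagree or hit not tested in dose response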;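 note: Vif residues 1-94 fused to GST binding biotinylated APOBEC3G peptide 110-148; 0% = full assay without inhibitor and 100% = GST in place of GST-Vif; retest series ran down from 100 µM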
T cruzi repl – T. cruzi replication inhibition. T. cruzi beta-gal in NIH3T3, luminescence, 90 h. inhibition, % (test concentration not listed). 300,000 compounds, 1.4% hits. AID 1885;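 active = mean inhibition across valid replicates above about 55%, limit read from the data; inconclusive = mean below that limit but half or more replicates reach it; inactive = mean below it, under half of replicates reach it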;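 note: signal also drops with host cell toxicity which is not excluded here; 0% = plate median of DMSO wells and 100% = zero luminescence signal; higher percent means less beta-gal luminescence so fewer parasites; stock transfer was 50 nL into about 50 µL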
Ecoli rRNA inh OD600 – further read-out of Ecoli rRNA inh, marked with its call; OD600 change, %; measured here: OD600 growth;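 optical density of the mix in the first replicate; 0 = DMSO median and -100 = no signal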
Ecoli rRNA inh RFP – recorded beside Ecoli rRNA inh, whose call it bears; RFP signal change, %; measured here: RFP humanized mutant strains;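 first replicate; 0 = DMSO median and -100 = no signal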
An asterisk follows results filed as active; ? = inconclusive; . = no result given. This is a subset; count on the stated rates, not on these rows.

molecule,AF4-AF9 inh,A1 inh,Beta cell apopt,Calb FLC,Ecoli rRNA inh,Ecoli rRNA inh OD600,Ecoli rRNA inh RFP,RanGTP-Imp inh,Vif A3G,T cruzi repl
COc1cccc(S(=O)(=O)Nc2ccc(C(=O)NCc3ccco3)cc2)c1,.,-0.5,-7,5,.,.,.,6.9,0%,-4
NC1=NC(c2ccccc2C(F)(F)F)N(c2ccc(F)c(Cl)c2)C(N)=N1 (stereo not given),3.2,1.0,-3,6,3,-4,-7.3,7.3,-6%,12
O=C1c2cccnc2C(=O)N1Cc1ccc(S(=O)(=O)NCc2ccco2)cc1,-11,-0.1,-1,1,11,19,-0.8,4.9,-2%,0
CC(C)=CCN1CCN(Cc2cc3ccccc3[nH]2)CC1CCO (stereo not given),-6.7,1.3,.,-6,7,9,3.1,-1.4,.,18
CC(=O)Nc1ccc(NC(=O)C2CC(=O)N(c3cccc(C)c3C)C2)cc1 (stereo not given),.,-0.4,-6,3,.,.,.,0.8,-4%,-12
OCCCNC(=S)Nc1ccc(Br)cc1Cl,-16,0.1,-4,0,-23,-12,-7.7,-0.5,-8%,4
O=C(CN1CCN(c2ccccn2)CC1)Nc1ccc(F)cc1F,-0.9,-0.2,-3,-2,13,19,-0.5,9.5,-10%,-7
O=C(N/N=C1\CCCc2ccccc21)c1cccc(Br)c1,5.5,0.3,-3,6,-4,1,5.1,-2.1,-5%,7
COc1ccc(CC2c3cc(OC)c(OC)cc3CC[N+]2(C)CCC(=O)OCCCCCOC(=O)CC[N+]2(C)CCc3cc(OC)c(OC)cc3C2Cc2ccc(OC)c(OC)c2)cc1OC (stereo not given),-1.5,-0.2,-19,.,6,12,1.7,.,.,.
O=C(Cc1ccccc1)NCCS(=O)(=O)N1CCN(c2ccccc2)CC1,-2.2,0.3,-8,1,9,10,0.8,1.8,6%,-3
CCc1c(C)nc2ncnn2c1NCCc1ccccc1,.,-0.5,27,-1,.,.,.,-3.6,20%,17
FC(F)Sc1ccc(NC(=S)NC(c2ccccc2)c2ccccc2)cc1,-1.5,0.3,37,-10,-54,-67,-17,-0.8,4%,?
Cc1cccc(C)c1NC(=O)CNC(=O)CCCN1C(=O)c2cccc3cccc(c23)C1=O,-2.1,0.7,6,.,2,2,1.1,.,1%,.
NC(=O)c1ccc(SCC(=O)OCC(=O)N2CCCC2=O)c([N+](=O)[O-])c1,5.0,0.8,2,-1,-1,-3,0.0,9.4,1%,1
COc1ccc(CNS(=O)(=O)NCc2ccc(OC)c(OC)c2)cc1,-0.7,1.0,9,14,3,-7,-2.0,5.1,2%,-18
Cc1cc(NC(=O)CSc2n[nH]c(N)n2)no1,-9.3,-0.5,0,1,19,11,0.2,-0.9,0%,-9
Cc1n[nH]c(=O)nc1NC1CCCCC1,.,-0.2,-7,-3,.,.,.,-2.4,-2%,-1
Cc1ccccc1Nc1nc(N)nc(COC(=O)c2ccco2)n1,-0.5,-0.9,-4,.,12,16,0.3,.,1%,.
COCCCNC(=O)CSc1nc2cc(S(=O)(=O)N3CCCCC3)ccc2o1,0.9,0.2,0,-6,7,6,-0.2,2.8,1%,9
COc1ccc(Cn2c(-c3ccc(OC)c(O)c3)nc3ccccc32)cc1O,0.8,1.1,.,20,-30,-32,-4.0,0.5,-5%,-6
Cc1c2ccccc2nc2c(F)c(NCCO)c(F)c(F)c12,.,-0.5,4,72,.,.,.,-9.8,.,2
COc1cccc(CNC(=O)CCNC(=O)C2CCN(S(=O)(=O)c3ccccc3)CC2)c1,-9.5,1.0,.,-4,4,10,1.7,4.3,.,6
CN(C)S(=O)(=O)c1ccc(S(=O)(=O)Nc2ccc3c(c2)oc2ccccc23)cc1,.,-1.3,1,16,.,.,.,1.1,0%,-5
COc1cc2nc(N3CCN(C(=O)[C@@H]4CCCO4)CC3)nc(N)c2cc1OC,1.5,-2.6,2,.,-1,11,-5.1,5.5,.,-17
Cc1c(NC(=S)NC(=O)c2ccccc2Br)c(=O)n(-c2ccccc2)n1C,2.4,1.0,-7,-7,13,3,0.2,0.0,2%,0
CCOCCNC(=O)c1ccccc1C(=O)NCCOCC,.,0.0,-6,-10,.,.,.,-1.4,89µM*,-4
CCC1CCCCN1CCCNC(=O)c1c(O)nc2ccccn2c1=O (stereo not given),0.3,-0.4,4,-6,6,7,0.6,3.2,.,0
C#CCSc1nncn1C(=O)/C=C/c1ccccc1,.,0.4,4,6,.,.,.,3.6,-8%,-23
CC1CCc2nc3ccc(S(=O)(=O)N4CCC(C(=O)N5CCCCC5)CC4)cc3c(C(=O)O)c2C1 (stereo not given),-3.7,0.5,-9,-3,19,9,15,-11,19%,-7
COc1ccc(CN(C(=O)c2ccco2)C2CCS(=O)(=O)C2)cc1 (stereo not given),0.6,0.6,-14,0,11,18,-1.8,-0.3,-1%,-1
COc1ccc(C(C)=O)cc1COC(=O)c1ccc2c(c1)OCCO2,-1.1,-0.1,1,.,.,.,.,.,-25%,.
COc1cccc(-n2c([S-])c(C(=O)Nc3ccc(C(F)(F)F)cc3)[n+]3ccccc23)c1,.,0.7,-8,25,.,.,.,5.0,-27%,7
CCN1CCN(C(=O)CSc2ccc(C)cc2)CC1,-0.5,0.3,.,18,13,19,0.7,0.2,-4%,25
CCCc1c(C)c2cccc(C)c2[nH]c1=O,.,-0.2,14,-6,.,.,.,-2.5,-10%,5
CC(C)c1onc(C(=O)Nc2sc3c(c2C#N)CCC3)c1[N+](=O)[O-],-2.1,-0.2,0,35,4,0,1.7,0.5,?,-16
CNc1nc(CCN2C(=O)c3ccccc3C2=O)cs1,.,0.4,-7,1,.,.,.,4.5,7%,7
O=C(COc1ccc2ccc(=O)oc2c1)NC(Cc1ccc(Cl)cc1)C(=O)O (stereo not given),7.5,0.5,1,-6,.,.,.,?,.,-1
c1ccc(CCn2c(C3CC3)nc3ccccc32)cc1,8.5,0.4,0,-3,-47,-69,-29,1.5,5%,.
Cc1cccc(S(=O)(=O)c2c(C)cc(C)[nH]c2=O)c1,1.5,0.4,0,-4,4,1,1.5,4.8,.,-2
Cc1ccc(C2Nc3ccccc3-c3nc4ccccc4n32)o1 (stereo not given),.,-1.4,2,-5,-27,-54,4.0,0.8,23%,14
CCOC(=O)C1CCN(C(=O)CSc2ccccc2Cl)CC1,-0.4,-0.1,.,2,-23,-28,-3.6,-5.8,22%,7
Nc1cc2c([N+](=O)[O-])cccc2o1,.,0.6,5,0,.,.,.,-0.8,6%,-22
Cc1cc(C(=O)OCC(=O)c2cccc([N+](=O)[O-])c2)c2ccccc2n1,.,-0.5,2,5,.,.,.,-8.5,.,0
CN(C)S(=O)(=O)c1ccc2c(c1)nc(CCC(=O)Nc1ccc(N3CCOCC3)cc1)n2C,2.1,0.4,-9,22,-7,5,-2.7,2.9,10%,-19
CC(=O)Nc1ccc(NC(=O)CCS(=O)(=O)c2ccc3c(c2)oc(=O)n3C)cc1,0.1,1.0,-5,0,-3,8,-4.5,-0.2,.,5
O=C(CCNC(=O)C1CCN(S(=O)(=O)c2ccc(F)cc2)CC1)Nc1ccccc1,-14,1.4,0,0,3,7,-0.8,4.3,30%,-7
CC(=O)N1CC(C)Sc2ccc(S(=O)(=O)NCc3ccc(F)cc3)cc21 (stereo not given),2.4,2.3,-2,-26,-26*,-18*,-0.1*,-0.4,.,15
N#C/C(=C/c1ccc(N2CCOCC2)o1)c1ccc(Br)cc1,.,3.5,13,-9,.,.,.,-8.5,24%,47
C=CCSc1nnc2n(CCc3ccccc3)c(=O)c3c4c(sc3n12)COC(C)(C)C4,.,-0.2,17,3,.,.,.,-5.2,-1%,28
CCCCOc1ccc(C(=O)NN2CCOCC2)cc1,-2.5,-0.6,.,-2,16,6,0.6,1.3,.,-1

Additional entries:
molecule,AF4-AF9 inh,A1 inh,Beta cell apopt,Calb FLC,Ecoli rRNA inh,Ecoli rRNA inh OD600,Ecoli rRNA inh RFP,RanGTP-Imp inh,Vif A3G,T cruzi repl
CC(=O)Nc1ccc2ccc3cccc4ccc1c2c34,.,0.5,2,-4,.,.,.,-0.6,-7%,6
COc1ccc2c(c1OC)C(=O)OC2Nn1cncn1 (stereo not given),.,0.7,-1,-14,.,.,.,.,-1%,-23
Cc1occc1C(=O)N/N=C/c1ccc[nH]1,0.7,-7.7,-2,1,1,1,1.9,-0.7,0%,-2
Cc1ccc(N(C(=O)C(F)(F)F)C(C(=O)NC2CCCCC2)c2ccncc2)cc1C (stereo not given),-0.1,0.0,-1,40,17,10,-0.5,1.5,.,-17
CC(=O)NC(Cc1ccccc1)C(=O)NC1CCN(C(=O)c2ccc([N+](=O)[O-])cc2)CC1 (stereo not given),.,-0.1,0,6,.,.,.,-1.4,.,-4
O=C(NC(=S)Nc1cccc2cc(O)ccc12)c1ccccc1Br,9.0,0.4,-1,10,-44,-67,3.2,2.5,.,-14
COc1ccccc1-c1noc(-c2ccccc2)n1,.,-10,.,-9,.,.,.,-1.7,3%,4
O=S1(=O)CCN(OCc2ccc(F)cc2Cl)CC1,-0.6,2.4,4,19,4,-3,-2.1,2.6,-4%,-8
CCOC(=O)C1CCCN(C(=O)Cn2ncc3c([nH]c4ccc(C)cc43)c2=O)C1 (stereo not given),-1.1,-0.5,1,4,4,-1,1.0,-4.4,2%,-1
COc1cc(C=O)ccc1Oc1nc(Nc2ccc(F)cc2F)nc(N2CCOCC2)n1,-4.6,-0.2,.,9,-8,-10,0.1,-4.5,.,15
CCCCCNC(=O)CC1Nc2c3ccccc3nc(=S)n2C1=O (stereo not given),.,1.4,-2,?,.,.,.,-2.6,2%,-11
NC(=O)C1(N2CCCCC2)CCN(C(=O)CSc2nc3ccccc3s2)CC1,.,-0.4,-3,13,.,.,.,8.6,-1%,19
O=C(Cn1nc(-c2ccccc2)ccc1=O)NCCN1CCN(c2cccc(Cl)c2)CC1,.,-0.6,-12,1,.,.,.,-2.7,1%,24
Cc1nc(Nc2nc3ccccc3o2)nc(C)c1C(=O)Nc1ccc(F)cc1,-0.9,-3.8,3,-9,15,18,-1.0,.,.,-20
O=C(Nc1ccccc1F)Nc1cccnc1Cl,-8.8,-2.5,-3,-16,6,10,0.9,-5.5,.,18
CC1CC(C)CN(CCCSc2ccccc2)C1 (stereo not given),.,-0.5,-4,0,.,.,.,3.5,8%,5
CCOC(=O)Cc1nc2cc(Cl)ccc2o1,-0.6,-0.1,-1,10,9,8,3.9,5.6,.,-11
CCN(CC)S(=O)(=O)c1ccc(/C(O)=C2/C(=O)C(=O)N(CCOC)C2c2ccccc2)cc1 (stereo not given),.,0.2,-7,7,.,.,.,1.4,22%,-3
C=CCNC(=S)Nc1ccc(C)cc1[N+](=O)[O-],0.9,0.5,-9,-11,3,1,-6.3,0.4,3%,-2
